Source: PubChem
Beta2AR agonist = agonists of human beta-2 adrenergic receptor inducing internalization; P07550; Am2.2-beta2AR cells, FAP receptor internalization, flow cytometry; reference of the scale not given here; response, % (concentration not given with the values); 340,000 tested, 0.43% active;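 active = response above a set limit, near 3 SD of response in nonfluorescent compounds, cut at about 42% in these data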;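 note: stock transfer was 100 nL into about 11 µL; a reference agonist was the positive control; negative values mostly stem from fluorescent compounds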
FGF22 binding = FGF22 (human) thermal shift binding; recombinant FGF22 thermal shift, SYPRO orange fluorescence; percent of sucrose octasulfate shift, DMSO zero; calls only at 9.99 µM; 340,000 tested, 1.5% active;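 active = melting point raised past a set limit in the mean and every replicate; three in four hits are not shown here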
Target sequence (Q9HCT0 whole entry, looked up): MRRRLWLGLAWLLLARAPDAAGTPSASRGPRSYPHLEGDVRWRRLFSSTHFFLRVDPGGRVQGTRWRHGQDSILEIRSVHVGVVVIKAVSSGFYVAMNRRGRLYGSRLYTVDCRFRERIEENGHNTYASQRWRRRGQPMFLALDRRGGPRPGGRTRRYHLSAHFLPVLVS
Ecoli growth = blocks Escherichia coli growth; OD600 absorbance (test concentration not listed); OD600, 23 h; stronger effect = lower value; 330,000 tested, 0.21% active; AID 1053175;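 active = OD600 absorbance below the run mean of sample wells minus 3.6 SD, in any replicate, cut at about 0.56 in these data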;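 note: stock transfer was 300 nL into about 60 µL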
LANA-H2A inh = blocks KSHV LANA binding to histone H2A/H2B | cell-free LANA-H2A/H2B peptide, fluorescence polarization | 320,000 tested, 0.6% active | Q9QR71 | AID 2629 | inhibition, % (test concentration not listed); in the data active = inhibition mostly above about 10%, no sharp cut-off; inactive = mostly below about 6.7%;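 note: stock transfer was 7.5 nL into about 10 µL; 0% = median of vehicle wells and 100% = median of positive control wells; one replicate is shown; the record names a cut of 25% in any replicate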
ALR inh = human ALR oxidase inhibition via reduced H2O2. purified ALR, DTT oxidation, H2O2 HRP-luminol luminescence. inhibition, % (no concentration beside the values). 290,000 tested, 3.8% active. AID 485317;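 active = mean and each replicate at 75% or more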;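 note: stock transfer was 7.5 nL into about 7.5 µL; 0% = neutral wells and 100% = wells with inactivated enzyme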
Target sequence (P55789 whole entry, looked up): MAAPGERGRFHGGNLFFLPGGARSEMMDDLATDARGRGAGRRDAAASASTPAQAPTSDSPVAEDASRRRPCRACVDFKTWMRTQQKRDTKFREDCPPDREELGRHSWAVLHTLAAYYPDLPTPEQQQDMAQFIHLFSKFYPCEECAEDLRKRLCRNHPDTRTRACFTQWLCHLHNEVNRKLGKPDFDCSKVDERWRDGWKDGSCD
HNF4A DNA FP = change in binding of human HNF4 alpha to DNA; P41235; HNF4a-FITC DNA binding, fluorescence polarization, 1 h; activity change, % at 10 µM; 360,000 tested, 0.3% active; AID 1224865; in the data active = activity change above about 30%, passing the limit was not always enough;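 note: controls were the assay level and a saturating level of protein; the project sought stronger binding though the title names inhibitors; some compounds called inactive have numbers as strong as hits; positive values seem to mean higher polarization but the record does not say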
Target sequence (P41235 whole entry, looked up): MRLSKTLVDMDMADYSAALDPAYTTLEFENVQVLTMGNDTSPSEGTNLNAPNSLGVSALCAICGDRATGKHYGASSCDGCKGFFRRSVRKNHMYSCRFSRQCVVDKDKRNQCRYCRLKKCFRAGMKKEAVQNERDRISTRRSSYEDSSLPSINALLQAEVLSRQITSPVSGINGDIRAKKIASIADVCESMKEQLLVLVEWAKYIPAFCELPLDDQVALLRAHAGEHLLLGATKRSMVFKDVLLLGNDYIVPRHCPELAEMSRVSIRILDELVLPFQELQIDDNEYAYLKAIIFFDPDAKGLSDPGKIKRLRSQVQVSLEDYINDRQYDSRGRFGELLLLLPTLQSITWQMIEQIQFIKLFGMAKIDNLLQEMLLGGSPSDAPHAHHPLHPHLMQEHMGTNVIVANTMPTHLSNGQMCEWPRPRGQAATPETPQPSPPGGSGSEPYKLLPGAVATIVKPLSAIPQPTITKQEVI
UCH37 inh = human UCH37 deubiquitinating enzyme inhibition | Q9Y5K5 | purified proteasome/UCH37, Ub-AMC cleavage fluorescence | inhibition, % (test concentration not listed) | 330,000 tested, 0.33% active | AID 588478;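 active = mean of two replicates above 20%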;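 note: 0% = compound-free wells with enzyme and 100% = wells lacking proteasome; stock transfer was 100 nL into about 20 µL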
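Test system – human UCH37 enzyme supplied as purified proteasome complex · Incubation – 30 min preincubation with enzyme, 25 min cleavage at room temperature · Detection – AMC fluorescence from Ub-AMC cleavage, excitation 355 nm, emission 460 nm · Benchmarks – no-proteasome wells (full inhibition) and compound-free wells (no inhibition)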
Active calls of the source: *; i = inactive; nt = no result given. Not all compounds are listed, so the mix of outcomes need not match the whole.

entry	compound	Beta2AR agonist	FGF22 binding	Ecoli growth	LANA-H2A inh	ALR inh	HNF4A DNA FP	UCH37 inh
1	CC(C)CN(C(=O)CN1CCCCCC1)c1c(N)n(CC(C)C)c(=O)[nH]c1=O	16	nt	0.7	9.9	-11	15	-0.4
2	O=C(NCC1CCCO1)c1cccs1 (centres undefined)	2	i	0.67	-11	-4	1.3	-1.4
3	C[C@@H](NC(=O)[C@@H]1Cc2ccccc2CN1)C(=O)NC1CCCCC1	-1	i	0.66	-2.1	5	-4.4	3.7
4	CN(Cc1ccccc1Cl)C(=O)C1CC(=O)N(c2ccc3c(c2)OCCO3)C1 (centres undefined)	-1	i	0.66	nt	nt	2.7	2.5
5	Cc1cc(=O)oc2c3c(cc(OCC(=O)NCC(=O)O)c12)OC(C)(C)CC3	-7	i	0.66	-4.9	-3	-1.9	i
6	CCOCCCNC(=O)CSc1nnc(-c2ccc(S(=O)(=O)N3CCCC3)cc2)n1C	5	i	0.65	2.0	5	1.3	0.3
7	Cc1c(C(=O)N2CCCCC2)c(S(=O)(=O)N2CCN(c3ccc(Cl)cc3)CC2)c(C)n1C	-2	i	0.68	-1.1	11	-26	5.0
8	CCCNc1nc(N2CCOCC2)nc(N2CCOCC2)n1	16	nt	0.72	5.9	nt	4.8	0.3
9	O=C(CCc1ccc(S(=O)(=O)N2CCOCC2)cc1)N/N=C/c1ccc(O)c(O)c1O	-4	nt	nt	5.5	99*	-2.9	nt
10	CCOC(=O)C(Cc1c[nH]c2cc([N+](=O)[O-])ccc12)(NC(C)=O)C(=O)OCC	8	i	0.67	nt	nt	-0.9	11
11	Cc1ccsc1-c1n[nH]c(=S)n1CC(C)C	12	nt	0.71	1.8	94*	-1.2	1.5
12	O=C(CSCc1ccco1)c1cccs1	-4	nt	0.72	5.2	99*	1.8	0.0
13	Cc1ccc(C(C)(O)CS(=O)(=O)Cc2ccccc2)cc1 (centres undefined)	-9	i	0.69	4.0	-1	6.8	-0.2
14	Cc1ccc(C(=O)NCC(=O)NCCSc2ccc(Br)cc2)cc1	-5	nt	0.68	-1.5	-8	1.1	0.8
15	CC1CCCN(c2ccc(C(=O)NCCc3ccccc3)cn2)C1 (centres undefined)	9	i	0.69	0.1	-5	-1.8	2.8
16	COc1cccc2[nH]c3c(N4CCCC(C)C4)ncnc3c12 (centres undefined)	-1	i	0.62	-3.7	-1	-1.9	-60
17	CCCCc1ccc(NC(=S)N2CCN(C(=O)OCC)CC2)cc1	-6	i	0.68	-0.9	nt	0.2	2.8
18	CCCCn1nnnc1NCc1cc(Cl)c(OC)c(OC)c1	-11	i	0.73	-1.3	-1	5.6	6.0
19	O=c1[nH]c2ccc(S(=O)(=O)N3CCN(C4CCCCC4)CC3)cc2[nH]c1=O	7	nt	0.68	-1.3	0	0.3	-26
20	CC(=O)c1cccc(N2C(=O)C3C(C(=O)Nc4cc(C)on4)C4(C)C=CC3(O4)C2C(=O)NC(C)(C)C)c1 (centres undefined)	-2	i	0.68	-4.9	nt	5.6	-0.7
21	CCOC(=O)c1ccccc1NC(=O)c1ccccc1SC	7	nt	0.66	1.2	-5	8.1	2.0
22	Cc1ccc(OCC(=O)OCc2nc3scc(-c4ccccc4)c3c(=O)[nH]2)cc1C	0	i	0.65	-10	0	0.6	5.4
23	COc1ccc(S(=O)(=O)N2CCN(C(=O)c3ccc4ccccc4n3)CC2)cc1	-2	i	0.68	-0.2	-2	1.8	-0.8
24	CCOC(=O)CC(=O)CSc1[nH]c(=O)cc(C)c1C#N	1	nt	0.72	0.6	38	-1.5	0.4
25	Cc1ccc(NC(=O)CSc2nc(=O)cc(N)n2CCc2ccccc2)cc1	-5	i	0.7	2.7	99*	5.0	3.9
26	Cc1ccc2[nH]c(=O)c(CN(CCCO)S(=O)(=O)c3cccc4nsnc34)cc2c1	-4	nt	0.72	1.2	2	-0.4	3.6
27	CCOC(=O)c1cnc2nc[nH]n2c1=O	-1	i	0.72	-0.1	nt	1.0	3.8
28	CC(C)(C)CN1C(N)=NC[C@@H]1Cc1ccccc1	1	i	0.8	0.9	-5	-0.1	2.7
29	COc1ccc(N2CC(C(=O)N[C@@H](C)C(=O)NC3CCCCC3)CC2=O)cc1 (some centres undefined)	3	i	0.67	2.3	-6	-1.9	-0.3
30	CCc1ccccc1NC(=O)C(C#N)Cc1cccnc1 (centres undefined)	4	nt	0.72	4.3	25	0.9	2.6
31	C=CCN(c1ccc(C(=O)Nc2cccc([N+](=O)[O-])c2)cc1)S(C)(=O)=O	2	i	nt	2.2	-10	2.5	nt
32	O=C(O)c1ccc(Cl)c(S(=O)(=O)NC(Cc2c[nH]c3ccccc23)C(=O)O)c1 (centres undefined)	5	i	0.64	2.6	nt	0.7	-0.4
33	Cc1nn(-c2nc(-c3ccco3)cc(C(F)(F)F)n2)c(C)c1Cl	-19	nt	0.72	1.9	-3	-0.5	-5.3
34	CCOc1ccc(N(C(=O)c2cnsn2)C(C(=O)NC2CCCCC2)c2ccncc2)cc1 (centres undefined)	-5	nt	0.71	-1.0	-14	2.9	2.2
35	Cn1nnnc1Sc1ncnc2scc(-c3cccc4ccccc34)c12	5	i	0.7	4.9	-1	-1.3	1.3
36	O=C(CSc1nnnn1-c1ccccc1)NCc1cccs1	-13	nt	0.66	13	-5	-0.2	-0.4
37	Cc1ccsc1C(=O)OCC(=O)Nc1ccc(Cl)cn1	6	i	0.67	1.9	1	1.9	-2.3
38	Cc1cc(NC(=O)CN2CCN(c3ccc(O)cc3)CC2)no1	1	nt	0.75	-1.7	99*	8.9	-1.3
39	Cc1cc(NS(=O)(=O)c2ccc(NC(=O)c3ccccc3C)cc2)no1	7	i	0.7	0.2	0	-1.0	1.3
40	CCc1cccc(CC)c1NC(=O)CSc1nnc(C2CC2)n1C	4	i	0.67	-3.9	1	-2.4	-1.4
41	Cn1ncc(Br)c1C(=O)N1CCc2ccccc21	-8	i	0.63	3.4	-5	1.5	1.4
42	CCOc1cc(/C=C2/NC(=O)N(CC(=O)Nc3cccc(C)c3)C2=O)ccc1OCC(N)=O	10	i	0.66	0.9	-5	1.5	-33
43	O=S(=O)(Cc1ccc(Cl)cc1Cl)c1ccc(Cl)cc1	15	i	0.69	nt	nt	1.8	3.7
44	COc1ccc(-c2cc(C(=O)O)[nH]n2)cc1OC	-2	nt	0.69	0.6	12	3.6	-0.1
45	COc1ccc(S(=O)(=O)N2CCCOC2CNC(=O)C(=O)NCc2ccccn2)cc1 (centres undefined)	-8	i	0.69	3.0	-3	-5.5	-1.4
46	Cc1cccc(OCCCC(=O)Nc2ccc(S(=O)(=O)Nc3nccs3)cc2)c1C	3	i	0.71	4.2	-1	-0.2	0.8
47	COCC(C)NC(=O)c1noc2c1CCc1cc(OC)ccc1-2 (centres undefined)	5	nt	0.66	3.8	-20	-0.8	-0.8
48	O=C(CN1CCCC1)Nc1ccc2c(c1)CCC2	1	nt	0.69	1.6	-4	1.5	5.0
49	Cc1ccccc1-c1nc(C#N)c(N2CCC(C)CC2)o1	-8	i	0.64	-5.7	2	0.6	-54
50	Cc1cccc(C)c1OCc1cc(C(=O)N(C)Cc2cc(C3CC3)n[nH]2)no1	-3	i	0.64	-7.9	2	1.3	3.1

(list continues)
entry	compound	Beta2AR agonist	FGF22 binding	Ecoli growth	LANA-H2A inh	ALR inh	HNF4A DNA FP	UCH37 inh
51	CCOc1ccc(Cc2nnc(SCC(=O)Nc3ccccc3)n(N)c2=O)cc1	0	i	0.7	1.4	-2	5.8	3.8
52	CC(C)C(NC(=O)COc1ccc2ccccc2c1)C(=O)N/N=C/C=C/c1ccccc1 (centres undefined)	-5	nt	nt	-4.3	-14	0.4	nt
53	CC(C)(C)NC(=O)C12CC3CC(CC(Cl)(C3)C1)C2	2	i	0.68	-2.0	1	0.7	-1.0
54	CCCN(CCC)Cc1c(C(=O)N/N=C/c2ccoc2)nnn1-c1nonc1N	-15	i	nt	-5.5	-3	0.0	nt
55	CCCCCCCN(c1ccccc1)[C@@H]1C[C@H]2CCCC(=O)N3CC[C@@H](C1)[C@@H]23	91*	i	nt	nt	nt	2.1	nt
56	Cc1ccc(Cl)cc1NC(=O)CNCC(c1ccccc1)N(C)C (centres undefined)	-5	i	0.66	-4.3	-38	2.7	0.5
57	COC(=O)c1ccc(C2=NOC(C)(c3sc(-c4ccc(Cl)cc4)nc3C)C2)cc1 (centres undefined)	-10	i	0.67	3.9	nt	0.3	1.6
58	COC(=O)C1Cc2c([nH]c3ccccc23)CN1 (centres undefined)	3	nt	0.68	-0.9	-2	2.0	-64
59	CC(=O)Nc1cccc(OCc2cccc([N+](=O)[O-])c2)c1	-11	i	nt	nt	nt	5.1	nt
60	CCCCC1=CC2=C(c3ccco3)C(=O)C(C)(OC(=O)c3ccc(OC)cc3)C(=O)C2=CN1CCOC (centres undefined)	7	nt	0.67	-2.0	-14	-1.1	4.9
61	O=S1(=O)C=CC(Nc2ccccc2)C1 (centres undefined)	-5	nt	0.67	-4.4	nt	3.7	4.8
62	CCC(C)(C)NC(=O)C(c1cccn1C)N(Cc1ccccc1)C(=O)Cn1nnc2ccccc21 (centres undefined)	3	nt	0.78	nt	nt	0.8	-0.2
63	O=c1c(O[C@@H]2O[C@H](CO)[C@@H](O)[C@H](O)[C@H]2O)c(-c2ccc(O)cc2)oc2cc(O)cc(O)c12	15	nt	nt	0.1	94*	-3.4	2.8
64	Cc1ccc2[nH]c(=O)cc(C(=O)OCC(=O)c3ccc(F)cc3)c2c1	-4	i	0.73	-3.6	4	4.1	-1.0
65	CCn1ncc(-c2csc(N)n2)c1C	-2	i	0.69	20	52	-3.1	5.4
66	CCCCN(C(=O)CCC(=O)Nc1cc(C)on1)C(C(=O)NC1CCCC1)c1ccccc1C (centres undefined)	-1	i	0.66	5.4	-10	3.4	3.7
67	CCN(CC)S(=O)(=O)c1ccc(O)c(NC(=O)c2ccc(N3CCOCC3)c([N+](=O)[O-])c2)c1	12	i	0.69	-0.1	-2	1.0	5.1
68	Cc1ccsc1C(=O)OCC(=O)Nc1sccc1C(N)=O	0	nt	0.68	-1.3	-4	1.0	1.8
69	Cc1ccc(NC(=O)C2CCN(c3ncnc4c3nc3n4CCCCC3)CC2)cc1Cl	11	i	0.67	0.9	-2	3.9	1.7
70	CC(NC(=O)OCc1ccccc1)C(=O)NCC1CCCO1 (centres undefined)	1	nt	0.75	-1.9	-8	-4.3	3.1
71	O=C(c1noc2c1CCCC2)N1CCc2ccccc2C1	-7	i	0.65	-0.3	nt	5.0	2.8
72	O=C(Nc1ccccc1)c1ccccc1N=Cc1cccc(O)c1	-4	nt	0.65	-3.9	8	-1.4	-217
73	CCN(CC)S(=O)(=O)c1ccc2c(c1)[nH]c(=S)n2CC	6	i	0.72	1.4	-3	1.3	4.0
74	CC(NC(=O)CNC(=O)C1CCCCC1)c1cccc(Cl)c1 (centres undefined)	0	i	0.7	-2.0	-20	4.0	0.2
75	N/C(=N\OC(=O)/C=C/c1ccccc1)c1ccc(Br)cc1	-4	nt	nt	-12	-10	1.5	0.4

Compound profiles, as listed above. Screens in order: Beta2AR agonist | FGF22 binding | Ecoli growth | LANA-H2A inh | ALR inh | HNF4A DNA FP | UCH37 inh
`Cc1ccc2[nH]c(=O)cc(C(=O)OCC(=O)c3ccc(F)cc3)c2c1` as listed: -4 | i | 0.73 | -3.6 | 4 | 4.1 | -1.0
`CCCCCCCN(c1ccccc1)[C@@H]1C[C@H]2CCCC(=O)N3CC[C@@H](C1)[C@@H]23` as listed: 91* | i | nt | nt | nt | 2.1 | nt

New compounds follow
entry	compound	Beta2AR agonist	FGF22 binding	Ecoli growth	LANA-H2A inh	ALR inh	HNF4A DNA FP	UCH37 inh
76	COCCn1c(N)c(Sc2ccccc2)c(=O)[nH]c1=O	1	i	0.7	-0.2	-2	6.1	-1.3
77	COc1ccccc1OCC(=O)Nc1cccc(C(=O)N2CCOCC2)c1	5	i	0.69	-0.3	-6	-3.3	2.0
78	CC[C@@]1(C(=O)OC)N[C@H](CN(C)C(=O)Nc2ccc(F)cc2)[C@@H]2C(=O)N(C)C(=O)[C@@H]21	-6	i	0.68	-0.9	nt	0.0	5.9
79	O=C(CSc1nc2ccccc2o1)Nc1ccccc1N1CCCCCC1	1	nt	0.75	-1.0	2	-1.0	4.4
